Autofluor counter: flagged as autofluorescent in microsphere protease counterscreen | compound autofluorescence counterscreen, microsphere flow cytometry; stronger effect = higher value | fluorescence intensity (concentration not given with the values) | actives 3.1% (n = 360,000);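 active means at least 3 SD above the mean of all compounds, about 16000 in these data; inconclusive means too few beads counted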;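 further: 100 nL of 1 mM stock went into each well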
RN4220 kill: S. aureus RN4220 growth inhibition; actives 0.33% (n = 330,000); inhibition, % (no concentration beside the values); OD600, 16 h;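 active means z-score of -3 or lower and OD600 up to 0.18 on both plates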;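 further: plate controls were untreated cells for no effect and reference antibiotic for full effect; stock transfer was 100 nL into about 80 µL; one replicate is shown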
Sa ugtP lethal: growth inhibition of S. aureus ugtP deletion strain | S. aureus RN4220 ugtP deletion, OD600 growth, 16 h; some inactives read as strong as hits | growth inhibition, % (concentration not given with the values) | actives 0.54% (n = 330,000) | AID 1259309;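 active means z-score under -3 and OD600 up to 0.15 on both plates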;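 further: plate controls were untreated wells for no effect and antibiotic for full effect; wells of about 80 µL received 100 nL stock; the first replicate is given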
BJeLR viability: kills HRASV12-expressing BJeLR cells; BJeLR (HRASV12) viability, CellTiter-Glo ATP luminescence, 48 h; reference of the scale not given here; inhibition, % (no concentration beside the values); actives 0.17% (n = 300,000); AID 1554;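 active means replicate mean above 50%; inconclusive means above 50% but judged a plate artefact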;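 further: 50 nL library stock added to about 25 µL; numbers are from one replicate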
PrP UTR inh: inhibition of PrP 5' UTR reporter expression | AID 488862 | actives 0.35% (n = 340,000) | cell-based PrP 5' UTR mRNA reporter, plate reader | inhibition, % (no concentration beside the values);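 active means every replicate at 50% or more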;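 further: 0 = median of the neutral control wells; tested in H4 reporter cells; numbers are from one replicate; inactives centre near -14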
Mtb hypoxia inh: Mtb hypoxia fluorescent reporter inhibition | M. tuberculosis hypoxia-regulated fluorescent reporter, fluorescence | fluorescence inhibition, % (test concentration not listed) | actives 0.1% (n = 300,000) | AID 1159583;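 active means 35 to 45% if threefold the growth effect, above 45% if 1.5-fold the growth effect; inactive means the rest, general growth blockers included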;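 further: wells of about 50 µL received 100 nL stock; 0% = vehicle wells and 100% = reference inhibitor wells; whole bacteria with a GFP reporter of the hypoxia response; strong numbers were not always called active; many hits fall short of the cut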
Mtb hypoxia inh growth: also measured in Mtb hypoxia inh; calls as there; growth inhibition, %; measured here: M. tuberculosis growth (absorbance);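 0% = vehicle and 100% = reference antibiotic; read after six days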
The depositor's hits bear a star; ? = inconclusive; . = no result given; & = joins results of further samples.

The line under a structure holds: Autofluor counter	RN4220 kill	Sa ugtP lethal	BJeLR viability	PrP UTR inh	Mtb hypoxia inh	Mtb hypoxia inh growth
> Cc1ccc(CNC(=O)c2ccc(N3CCc4ccccc43)c([N+](=O)[O-])c2)cc1
→ 2496	2.4	2	-1	-32	11	8
> CCOC(=O)C(C)On1c(-c2ccc(Cl)cc2)nc2ccc([N+](=O)[O-])cc21 (stereo not given)
→ 3140	-6.3	-8	0	-131	6	3
> CN(CC(=O)NC(=O)NCc1ccccc1)Cc1ccc(Cl)c(Cl)c1
→ 10350	4.6	-9	8	-26	7	4
> COc1cccc(OC)c1-c1nn2c(-c3ccccc3Cl)nnc2s1
→ 21844*	3.0	-8	1	-47	9	8
> CC1(C)SC(=S)N(/N=C/c2ccccc2O)C1N(O)C(=O)Nc1ccccc1 (stereo not given)
→ 3586	.	.	3	-4	.	.
> CCOC(=O)Cc1nnc(NC(=O)CC)s1
→ 2430	1.0	-3	4	-18	.	.
> O=C1OCC=C1NNC(=O)c1cccnc1
→ 4264	3.8	6	2	-8	2	-2
> Cc1ccc(NC(=O)C2CCC(CNc3c(N4CCC(C)CC4)c(=O)c3=O)CC2)cc1F (stereo not given)
→ 4349	1.6	3	-9	-11	6	-8
> CCc1nc(SCC(=O)c2ccccc2)c2c(=O)n(C)c(=O)n(C)c2n1
→ 4762	3.7	2	-2	5	8	16
> NC(=O)c1ccc(-n2nnnc2SCC(=O)c2ccc(O)c(O)c2)cc1
→ 2179	5.9	-3	-3	6	5	0
> CSc1nc2ncc3c(n2n1)CC(C)(C)CC3=O
→ 4677	1.6	-1	9	-16	15	6
> CCOc1ccc(CCNC(=O)CN2C(=O)NC3(CCc4ccccc43)C2=O)cc1OCC (stereo not given)
→ 6262	2.5	7	2	-7	8	11
> COc1ccccc1NC(=O)c1ccc(NC(=O)COC(=O)c2cncc(Br)c2)cc1
→ 4033	-0.3	-2	.	-5	5	-2
> CCOC(=O)c1c(C)[nH]c(N=Nc2cc(C(=O)O)cc(C(=O)O)c2)c1C
→ 4655	1.2	5	-10	-16	12	4
> CCc1c(C)nc(N2CCN(c3ccc(OC)cc3)CC2)[nH]c1=O
→ 3086	3.1	6	2	-24	8	11
> Cc1ccc2c(c1)-c1cc(C)nn1C(c1ccc3c(c1)OCO3)N2 (stereo not given)
→ ?	5.3	29	11	-3	6	6
> Cc1ccc(S(=O)(=O)NCC(=O)NCC(=O)NC(C)c2ccccc2Br)cc1C (stereo not given)
→ 2997	0.8	0	-3	-27	5	-4
> Cc1ccc(C(C(=O)NC(C)(C)C)N(Cc2cccs2)C(=O)c2ccc3c(c2)OCCO3)cc1 (stereo not given)
→ 3091	2.1	5	6	-9	-6	-1
> O=S(=O)(NCC(c1ccccc1)N1CCC(O)CC1)c1ccc(Cl)cc1 (stereo not given)
→ 5668	4.7	2	-3	-20	9	4
> Cc1ccccc1-n1nc2c(c1NC(=O)/C=C\c1ccc3c(c1)OCO3)CSC2
→ 5029	-1.1	7	-5	-20	4	9

In another format: entries from further up.
| canonical_smiles | Autofluor counter | RN4220 kill | Sa ugtP lethal | BJeLR viability | PrP UTR inh | Mtb hypoxia inh | Mtb hypoxia inh growth |
| --- | --- | --- | --- | --- | --- | --- | --- |
| O=S(=O)(NCC(c1ccccc1)N1CCC(O)CC1)c1ccc(Cl)cc1 (stereo not given) | 5668 | 4.7 | 2 | -3 | -20 | 9 | 4 |
| CCOc1ccc(CCNC(=O)CN2C(=O)NC3(CCc4ccccc43)C2=O)cc1OCC (stereo not given) | 6262 | 2.5 | 7 | 2 | -7 | 8 | 11 |

Additional records:
The line under a structure holds: Autofluor counter	RN4220 kill	Sa ugtP lethal	BJeLR viability	PrP UTR inh	Mtb hypoxia inh	Mtb hypoxia inh growth
> COc1cc(C=NNC(=O)CCN2CCN(c3ccccc3)CC2)cc(OC)c1OC
→ .	1.9	9	.	.	13	8
> OCCC1CN(Cc2cccn2-c2cccnc2)CCN1CCc1ccccc1 (stereo not given)
→ 4165	14	6	-6	-18	10	7
> CCn1c2ccccc2c2cc(C=Nn3c(-c4cc(C)[nH]n4)n[nH]c3=S)ccc21
→ .	2.0	-4	.	.	8	0
> CCCCNC(=S)NNC(=O)c1ccncc1
→ 4441	12	6	-1	-55	-1	-7
> Cc1cccc(/C=C2\Sc3ccc(C(=O)N4CCCCC4)cc3N(C)C2=O)c1
→ 5529	7.7	-8	-10	-4	-1	11
> CC(C)c1ccc(CN2CCN(C(=O)CSc3nnnn3C3CC3)CC2)cc1
→ 3913	4.6	8	.	0	-1	3
> CC1(C)NC(=O)N(CCCSc2ccc(Cl)cc2)C1=O
→ 9615	4.0	3	7	.	5	12
> CN1CCc2cc3c(c4c2C1CC41CCC(=NO)CC1)OCO3 (stereo not given)
→ 2429	-7.3	-1	-12	-16	13	14
> Cc1cc(Br)c(NC(=O)C(C)Sc2nnnn2C)c(Br)c1 (stereo not given)
→ 3939	14	1	.	-14	4	-3
> CC(/C=C/c1ccco1)=NNC(=O)COc1ccc(C)c(C)c1
→ .	10	0	.	.	4	3
> CCOC(=O)c1c(NC(=O)c2cccs2)sc(C)c1C
→ 3396	-7.3	-9	0	2	2	3
> Cc1ccc(C(C)C)cc1OCCN1CCCC1
→ 2205	-0.7	14	3	-23	15	8
> CCCC(=O)Nc1ccc(NC(=S)NC(=O)c2cccs2)cc1
→ 2452	1.2	57	0	-3	20	25
> CCN(c1ccccc1)S(=O)(=O)c1cccc(C(=O)OCc2nc3sc(C)c(C)c3c(=O)[nH]2)c1
→ 2026	5.4	-7	-3	2	-11	5
> Cc1cc(Cn2nnc3ccccc32)c(O)c(C(C)(C)C)c1
→ 3217	.	.	10	-13	.	.
> Cc1ccc2c(c1)C1CN(C)CCC1N2C(=O)Nc1cccc(Cl)c1 (stereo not given)
→ 11047	-5.0	-12	-22	-12	9	1
> O=C1OCCN1C(=O)[C@H]1[C@H](c2ccc(F)cc2)C(c2cccc(Cl)c2)=NN1c1ccc(Br)cc1
→ 3496	-1.6	16	.	-40	5	8
> Cc1cnc(NC(=O)c2ccc(-c3nc4ccccc4s3)o2)s1
→ 3621	34	18	-6	-45	1	4
> Cc1ccc2[nH]c(=O)c(COC(=O)c3ccccn3)cc2c1
→ 3609	8.0	1	4	-5	.	.
> Cc1ccc(N(CC(=O)NC2CCCC2)C(=O)CNC(=O)c2cccs2)cc1C
→ 4417	-0.6	-1	5	-7	7	-8
> COc1ccc(-c2csc(Nc3ccccn3)n2)cc1
→ 3994	8.6	8	24	-58	10	9
> Cc1cc2sc(NC(=O)c3ccco3)nc2cc1Cl
→ 3676	4.2	4	11	-57	0	8
> CCCCCC(=NNC(=O)Nc1ccccc1)c1ccccc1
→ .	-4.7	-7	.	.	0	6
> COc1ccc(CC(C)NCC(O)c2ccc(O)c(NC=O)c2)cc1 (stereo not given)
→ 2905&5435	24	31	.	39	-4	1
> CC(CCc1ccccc1)NC(=O)CNC(=O)N1CC(=O)Nc2ccccc21 (stereo not given)
→ 4328	-0.6	3	-2	-8	-3	1
> COCCn1c(SCC(=O)NNC(=O)c2ccccc2)nc2ccccc2c1=O
→ 1892	6.0	6	9	-7	5	3
> N#C/C(=C\c1ccc(F)c(F)c1)C(=O)NC1CCCCC1
→ 2009	0.0	-19	4	-2	2	2
> O=C(NN=Cc1ccc(Cl)cc1)c1nc2ccc([N+](=O)[O-])cc2c(=O)[nH]1
→ .	0.1	5	.	.	-8	14
> COC(=O)c1cc(Cl)c(NC(=O)c2cc(OC)c(OC)c(OC)c2)cc1OC
→ 21669*	4.2	-6	-9	-135	-3	9
> COc1cc(Cl)c(C)cc1NC(=O)CSc1nnc(CCC(=O)O)c(=O)[nH]1
→ 4935	2.4	4	.	-16	4	8
> CN1C(=S)SC(C)(C)C1NO (stereo not given)
→ 10146	0.1	-1	2	-16	-4	-5
> COc1ccnc(N2CCN(c3cccc(C(F)(F)F)c3)CC2)c1C#N
→ 12172	0.3	1	4	-15	6	5
> O=C(CP(=O)(c1ccccc1)c1ccccc1)Nn1cnnc1
→ 4988	-3.0	-7	15	-7	.	.
> COc1cc(CCCN2C(=S)NCC2Cc2ccccc2)cc(OC)c1OC (stereo not given)
→ .	7.9	6	.	.	4	7
> CCN(CC)c1ccc(S(=O)(=O)N2CCOCC2)cc1NC(=O)CN1CCN(Cc2ccccc2)CC1
→ 4653	9.7	14	18	0	-3	-9
> CCOc1ccc(N(C(C)C(=O)NN=C2CCCCCCC2)S(C)(=O)=O)cc1 (stereo not given)
→ 2440	0.9	-3	3	-3	1	2
> COc1ccc(CC(=O)Nc2nc(C)cs2)cc1
→ 4229	10	7	4	-16	-4	5
> Cc1nc(C)c(C(=O)N/N=C/c2ccco2)s1
→ 5046	.	.	-2	-7	.	.
> Cc1ccc(C2N(c3nccs3)C(=O)C3CCCN32)cc1 (stereo not given)
→ 4385	6.8	-2	-2	-15	14	5
> C/C(=N\N1CCN(c2ccccc2)CC1)c1ccco1
→ 2669	.	.	9	11	.	.
> Cc1ccc(NC(=O)C[n+]2cc(-c3ccccc3)n3c2CCC3)c(C)c1
→ 5752	0.1	7	-6	-11	13	4
> NC(Cn1cncn1)=NNC(=O)C(=O)Nc1ccccc1
→ .	4.0	-4	.	.	3	8
> Cc1ccc(Cc2c(C)[nH]c(=S)[nH]c2=O)cc1
→ 7058	1.2	4	-8	-15	-1	-6
> Cc1cccc(NC(=S)NN2CCN(C)CC2)c1
→ 2082	1.0	-1	2	8	.	.
> N[C@@H](CO)c1nnc([C@H](CCC(=O)O)NC(=O)C2CCNCC2)o1
→ 4046	.	.	-1	-16	.	.
> N#Cc1c(NC(=O)CSc2ncnc3sccc23)oc(-c2ccco2)c1-c1ccco1
→ 2770	14	28	-5	-14	.	.
> O=C(COC(=O)c1ccco1)Nc1nc2ccc([N+](=O)[O-])cc2s1
→ 4351	2.8	9	11	-10	9	-2
> Cc1ccccc1CN1C(=O)c2ccccc2Sc2ccc(C(=O)NCCCN3CCOCC3)cc21
→ 4180	-1.3	-7	-10	-6	-8	-2

Of the compounds above, these have an NH in an aromatic ring:
The line under a structure holds: Autofluor counter	RN4220 kill	Sa ugtP lethal	BJeLR viability	PrP UTR inh	Mtb hypoxia inh	Mtb hypoxia inh growth
> CCOC(=O)c1c(C)[nH]c(N=Nc2cc(C(=O)O)cc(C(=O)O)c2)c1C
→ 4655	1.2	5	-10	-16	12	4
> CCc1c(C)nc(N2CCN(c3ccc(OC)cc3)CC2)[nH]c1=O
→ 3086	3.1	6	2	-24	8	11
> CCn1c2ccccc2c2cc(C=Nn3c(-c4cc(C)[nH]n4)n[nH]c3=S)ccc21
→ .	2.0	-4	.	.	8	0
> CCN(c1ccccc1)S(=O)(=O)c1cccc(C(=O)OCc2nc3sc(C)c(C)c3c(=O)[nH]2)c1
→ 2026	5.4	-7	-3	2	-11	5
> Cc1ccc2[nH]c(=O)c(COC(=O)c3ccccn3)cc2c1
→ 3609	8.0	1	4	-5	.	.
> O=C(NN=Cc1ccc(Cl)cc1)c1nc2ccc([N+](=O)[O-])cc2c(=O)[nH]1
→ .	0.1	5	.	.	-8	14
> COc1cc(Cl)c(C)cc1NC(=O)CSc1nnc(CCC(=O)O)c(=O)[nH]1
→ 4935	2.4	4	.	-16	4	8
> Cc1ccc(Cc2c(C)[nH]c(=S)[nH]c2=O)cc1
→ 7058	1.2	4	-8	-15	-1	-6
